MT1-MMP act inh: inhibitors of human MT1-MMP activation; P50281; HT1080 RFP-PRO-GFP cells, GFP/RFP ratio fluorescence, overnight; percent of plate control window, DMSO zero; GFP/RFP ratio change, % at 20 µM; 360,000 tested, 0.061% active; AID 651647;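 active means GFP/RFP ratio change of at least 30% with cell ATP level not reduced by more than half and red fluorescence within 50% of control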; further: strong numbers were not always called active
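system = RFP-PRO-GFP reporter HT1080 cells | dosing = 20 µM single dose, 1% DMSO | timing = overnight cell settling, then overnight compound exposure, 37 °C, 5% CO2 | read-out basis = GFP/RFP fluorescence ratio | controls = DMSO and RFP-L50D-GFP cell wells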
CSC inhib: cancer stem cell inhibition; inhibition, % at 7.5 µM; 300,000 tested, 1.1% active; cancer stem cell-like cells viability, luminescence;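 active means mean at 75% or more and at least half the replicates too; inconclusive means mean and replicates disagree; tested in HMLE shEcad cells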;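 further: 0% = median of negative and 100% = median of positive control wells; the first replicate is given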
PABP polyA inh: blocks human PABP binding to poly(A) RNA; 290,000 tested, 1% active; inhibition, % at 35 µM; P11940; fluorescence polarization;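 active means 50% or more with normal probe brightness, or confirmed in later tests; inconclusive means above 50% with abnormal brightness, or retests that disagree; inactive means below 50% or failed in later tests; about a fifth of its hits are not listed in these tables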;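 further: calls also rest on retests at 20 µM and on dose response follow-up; controls were probe without protein and protein plus probe with vehicle; some compounds called inactive have numbers as strong as hits; many hits fall short of the cut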
Target sequence (P11940 whole entry, looked up): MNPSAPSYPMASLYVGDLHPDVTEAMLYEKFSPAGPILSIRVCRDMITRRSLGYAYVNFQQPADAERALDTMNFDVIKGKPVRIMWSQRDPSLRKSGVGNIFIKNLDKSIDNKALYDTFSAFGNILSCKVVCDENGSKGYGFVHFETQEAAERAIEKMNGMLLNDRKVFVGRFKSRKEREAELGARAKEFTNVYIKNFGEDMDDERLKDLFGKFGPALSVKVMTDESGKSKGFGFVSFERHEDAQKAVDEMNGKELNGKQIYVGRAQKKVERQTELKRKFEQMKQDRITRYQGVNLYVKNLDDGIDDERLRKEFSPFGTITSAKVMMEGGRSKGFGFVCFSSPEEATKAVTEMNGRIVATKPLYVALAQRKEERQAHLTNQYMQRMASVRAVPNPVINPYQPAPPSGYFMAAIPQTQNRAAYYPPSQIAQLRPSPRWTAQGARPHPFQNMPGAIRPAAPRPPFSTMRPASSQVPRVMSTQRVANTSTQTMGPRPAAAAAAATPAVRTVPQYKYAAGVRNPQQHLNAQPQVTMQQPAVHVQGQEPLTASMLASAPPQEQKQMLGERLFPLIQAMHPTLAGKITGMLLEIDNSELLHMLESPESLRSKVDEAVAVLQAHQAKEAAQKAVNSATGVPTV
eIF4H FP inh: inhibitors of RNA binding by human eIF4H. Q15056. eIF4H fluorescence polarization binding assay. inhibition, % at 35 µM. 290,000 tested, 0.94% active;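 active means 50% or more with normal probe brightness, or confirmed in later tests; inconclusive means above 50% with abnormal brightness, or retests that disagree; inactive means below 50% or failed in later tests; about a fifth of its hits are not listed in these tables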;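 further: calls also rest on retests at 20 µM and on dose response follow-up; 0% = protein and probe with vehicle and 100% = probe without protein; strong numbers were not always called active; many hits fall short of the cut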
Rce1 inhib: blocks yeast Ras-converting enzyme; Q03530; yeast membranes, quenched prenylated peptide cleavage fluorescence; calls only; 290,000 tested, 0.27% active;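 active means fall in fluorescence gain of 50% or more versus controls, with final raw signal at or below 3038400; inconclusive means same 50% fall but final raw signal above 3038400; inactive means fall in fluorescence gain under 50%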;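 further: plate controls were neutral control wells for no effect and wells lacking membranes for full effect; tested at 10 µM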
Target sequence (Q03530 whole entry, looked up): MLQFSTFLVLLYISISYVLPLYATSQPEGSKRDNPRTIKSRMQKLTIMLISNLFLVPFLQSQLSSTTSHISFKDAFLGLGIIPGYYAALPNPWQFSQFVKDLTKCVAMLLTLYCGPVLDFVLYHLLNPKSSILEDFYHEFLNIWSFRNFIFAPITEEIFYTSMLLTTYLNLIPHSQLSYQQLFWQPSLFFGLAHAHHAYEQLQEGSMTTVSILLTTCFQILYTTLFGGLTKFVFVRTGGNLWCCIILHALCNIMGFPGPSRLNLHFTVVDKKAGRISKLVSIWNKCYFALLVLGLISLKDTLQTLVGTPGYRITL
HIV Env fusion: inhibitors of HIV Env-mediated cell fusion | inhibition, % at 12.3 µM | 360,000 tested, 1.1% active | HeLa-JRFL Env/CEM21 cell fusion, luciferase | AID 651610;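 active means mean replicate inhibition score of at least 50 and every replicate individually at or above 50; inconclusive means only one of the two criteria met; inactive means mean below 50 and not all replicates reaching 50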;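 further: 0% = plate neutral controls and 100% = maraviroc near 300 nM; one replicate is shown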
Yeast UUG start: alters start codon recognition fidelity in yeast. S. cerevisiae UUG-firefly luciferase reporter, luminescence/redox ratio. activity score, % at 18.7 µM. 350,000 tested, 0.13% active. AID 602363;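 active means replicate mean at a twofold rise or more, about +100% in these data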;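 further: firefly luciferase made from a UUG start codon reports start codon fidelity; reporter light over untreated wells divided by growth signal over untreated wells; some hits fall short of that in this replicate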
MT1-MMP act inh RFP: also measured in MT1-MMP act inh; calls as there; RFP signal change, %; measured here: RFP expression control read;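 0 = vehicle wells; hits needed this value within 50% of zero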
Numbers without * were called inactive; i = inactive; ? = inconclusive; nt = not tested or not shown; + = active, no number; & = joins results of further samples.

no.	SMILES	MT1-MMP act inh	MT1-MMP act inh RFP	CSC inhib	PABP polyA inh	eIF4H FP inh	Rce1 inhib	HIV Env fusion	Yeast UUG start
1	CNc1nc(NCc2ccccc2)c2sccc2n1	10	1	nt	nt	nt	nt	8	5
2	BrC(=C\c1ccccc1)/C=N/n1cnnc1	-13	-15	nt	0	0	i	-181	nt
3	Nc1nc2n(n1)C(c1cccs1)CC(c1ccc(F)cc1)N2 (stereo not given)	-4	0	4	1	9	i	-64	-31
4	O=C(NNC(=O)c1ccccc1OCc1ccc(F)cc1)c1ccccc1O	0	-7	6	-7	19	i	22	7
5	O=C(c1ccco1)N1CCN(c2nc3ccccc3n3nnnc23)CC1	-7	1	4	-4	32	i	nt	-11
6	O=C(NCc1ccc(Cl)cc1)C(=O)c1cn(CC(=O)N2CCOCC2)c2ccccc12	-2	2	-11	1	-3	i	-15	-4
7	COc1ccc(NC(=O)C2(N(C(=O)Cn3nnnc3N)c3ccc(OC)cc3)CCCCC2)cc1	-4	0	1	10	-14	i	0	3
8	N/C(=N\O)c1ccc(NC(=O)c2cccs2)cc1	6	1	5	7	-9	i	-12	-20
9	CC(=O)c1ccc(OC(=O)c2ccc(-n3nc(C)cc3C)cc2)cc1	0	-2	-9	10	-7	i	-10	nt
10	COc1ccc(Nc2ncnc3c2cnn3Cc2ccccc2)cc1	10	-2	53	2	5	i	8	-24
11	Cc1cc[n+]2c3c(cccc13)CCC2	2	1	-1	12	19	i	1	-10
12	Cc1cc(NC(=O)Nc2cccc(Cl)c2)n(-c2ccccc2)n1	3	2	-3	-10	-4	i	-23	nt
13	COCCOc1ccc(C(F)(F)F)cc1NC(=O)COC(=O)c1cc([N+](=O)[O-])ccc1N1CCOCC1	-2	-6	-2	10	5	i	-24	3
14	C[C@@H]1CN([C@@H](C)CO)C(=O)c2cc(C#CC3CCCCC3)cnc2O[C@@H]1CN(C)S(=O)(=O)c1ccc(F)cc1	-2	-11	nt	nt	nt	nt	18	55&76&-8
15	C/C(=N/NC(=O)CNC(=O)Cc1ccccc1)c1ccco1	1	3	-5	-6	9	i	-8	-18
16	CCn1c(O)c(N=NC(=O)c2cccs2)c2ccccc21	10	1	-20	-5	-10	i	-28	nt
17	Cc1ccc(S(=O)(=O)N2CCN(C(=O)C3CCN(C(=O)c4ccc(F)cc4)CC3)CC2)c(C)c1	-1	-18	-9	nt	nt	i	22	9
18	O=C(CSc1nn(-c2ccc(F)cc2)c(=S)s1)NC(=O)NCc1ccco1	3	2	15	26	34	i	nt	nt
19	COC(=O)c1ccc(OC)c(-c2c(OC)cc(OC)cc2OC)c1	2	3	-11	-7	-3	i	-26	nt
20	COc1cccc(NC(=O)COC(=O)Cc2ccccc2[N+](=O)[O-])c1	-1	0	-8	-15	-5	i	-5	-17
21	Clc1ccc(SCCCCN2CCOCC2)cc1	-2	2	35	-13	-6	i	-3	nt
22	Cc1ccc(S(=O)(=O)NCCC(=O)NC2CCCCC2)cc1	1	1	2	nt	nt	nt	2	-11
23	Cc1ccccc1C(=O)NC(CC(C)C)C(=O)Nc1ccc(S(N)(=O)=O)cc1 (stereo not given)	1	0	-8	-7	-4	i	7	nt
24	c1ccc2[nH]c(N3CCOCC3)nc2c1	1	5	-9	3	6	i	nt	-19
25	Cc1nc2ccccc2c(=O)n1-c1ccc(F)c(NS(=O)(=O)c2ccccc2F)c1	-2	0	nt	nt	nt	i	14	-6
26	O=C(CN1C(=O)COc2ccccc21)N(CCCN1CCOCC1)CC1CC=CCC1 (stereo not given)	3	0	1	-8	-8	i	nt	-3
27	COc1ccc(/C=C/CN2CCC(Oc3ccc(C(=O)N4CCCCC4)cc3)CC2)cc1	-5	-2	0	-10	-11	i	21	-14
28	O=C(Cc1ccc(NC(=O)C2CCN(C(=O)C3CCCC3)CC2)cc1)Nc1cccc(C(=O)N2CCCCC2)c1	0	4	nt	nt	nt	nt	0	1
29	COc1cc(NC(=O)COC(=O)/C=C/c2c(C)nn(C3CCS(=O)(=O)C3)c2Cl)cc(OC)c1OC (stereo not given)	-1	1	-5	14	1	i	nt	-4
30	COc1ccc(C)cc1S(=O)(=O)N1CCC(C(=O)N2CCN(C)CC2)CC1	2	6	-12	-2	4	i	-6	nt
31	Cc1ccc(C(NC(=O)Nc2ccccn2)C(Cl)(Cl)Cl)cc1F (stereo not given)	-1	-10	5	-7	-11	i	26	nt
32	Cc1csc(NC(=O)c2ccc(C)c([N+](=O)[O-])c2)n1	-3	-20	-6	-3	1	i	-252	nt
33	COc1ccc2c(=O)c(C(=O)O)c(-c3ccc4c(c3)OCO4)n(C)c2c1	1	5	nt	-5	-8	i	-14	-18
34	O=c1c2cc(F)ccc2sn1-c1ccc(F)cc1	0	-16	34	nt	nt	nt	nt	-25
35	COc1ccc(C2=NOC(Cn3nc(-c4ccccc4)cc3C(=O)NCc3cccc(Br)c3)C2)cc1 (stereo not given)	4	-1	nt	nt	nt	nt	-1	-8
36	CCNC(=S)NCc1ccc(OC)c(OC)c1	-1	2	-6	-5	-9	i	20	-2
37	CC(C)CN(C(=O)CN1C(=O)NC(c2ccccc2)(c2ccccc2)C1=O)C1CCS(=O)(=O)C1 (stereo not given)	2	3	nt	nt	nt	nt	-3	5
38	COCCn1c(N)c(C(=O)c2cccc(S(=O)(=O)N3CCCCCC3)c2)c(=O)[nH]c1=O	-4	-6	nt	nt	nt	nt	-2	-5
39	CC1Sc2ccc(S(=O)(=O)CCC(=O)N3CCCC3)cc2NC1=O (stereo not given)	-3	2	6	5	-16	i	12	-15
40	CCC1(c2ccccc2)NC(=O)N(CC(=O)NNC(=O)c2ccc(F)cc2)C1=O (stereo not given)	4	4	nt	nt	nt	nt	6	-2
41	C[C@H](CO)N1C[C@H](C)[C@@H](CN(C)Cc2ccc(Cl)c(Cl)c2)Oc2c(NC(=O)C3CCOCC3)cccc2C1=O	-4	-1	nt	nt	nt	nt	-77	-7&-9
42	CC(C)CC(O)(c1ccccc1)C(CN1CCOCC1)c1ccccc1 (stereo not given)	-10	-7	2	-5	-1	i	27	-27
43	O=C(Cn1nc(-c2ccccc2)nc1-c1ccccc1)OC1CCCCC1	-7	-7	15	-2	6	i	nt	-7
44	Cc1ccc(S(=O)(=O)N2CCN(C(=O)n3ccnc3)CC2)cc1	2	3	nt	nt	nt	nt	-7	-27
45	CC(=O)Nc1nnc(SCC(=O)NC2CC2)s1	3	5	-8	1	-9	nt	-9	0
46	Cc1ccccc1-c1nc2c3ccccc3nc(=S)n2[nH]1	8	1	-5	-2	0	i	1	-13
47	Cc1nn(-c2ccccc2)nc1CNS(C)(=O)=O	1	2	-12	8	-6	i	-1	nt
48	CCN(CC(=O)Nc1ccccc1C(F)(F)F)C(=O)CSCc1c(C)noc1C	0	2	-8	nt	nt	i	-108	nt
49	CCOCCN1CCN(C2c3ccccc3CSc3ccccc32)CC1 (stereo not given)	1	-1	30	nt	nt	i	13	-6
50	COc1ccc(NC(=O)C2CCN(Cc3cnn(-c4ccccc4)c3-n3cccc3)CC2)cc1OC	6	-2	-15	-9	-2	i	nt	nt
51	CCSCCOC(=O)C1=C(C)NC(=O)NC1c1ccccc1 (stereo not given)	5	-2	-8	2	-9	+	-5	-19
52	O=C(NC(=S)Nc1cccc2ncccc12)c1ccco1	3	5	-5	-20	-8	i	-4	-23
53	COc1ccccc1C(=O)NC(CCSC)C(=O)N1CCN(C(C)=O)CC1 (stereo not given)	0	7	-4	nt	nt	nt	-8	-6
54	O=C1CCC(C(=O)Nc2ccc(Cl)cc2)N1 (stereo not given)	0	0	6	8	-8	i	2	-13
55	CN1CCn2cnc(C(=O)N3CCN(c4ccccc4)CC3)c2C1=O	0	2	nt	nt	nt	nt	3	-9
56	Cc1ccc(S(=O)(=O)Nc2cc(C(=O)N3CCOCC3)ccc2N2CCCCC2)cc1	-6	-7	0	-3	-3	i	nt	-12
57	COc1nc(N(C)C)nc(-n2nnc(C(C)=O)c2C)n1	5	0	0	-3	-3	i	nt	-12
58	COC(=O)c1ccccc1NC(=O)CN(C)S(=O)(=O)c1ccc(OC)c(C)c1	-9	-1	-9	-3	-10	i	8	-11
59	Cc1cc(NC(=O)CSc2n[nH]c(=O)[nH]c2=O)ccc1Br	-5	-3	nt	-6	-2	i	-49	nt
60	COc1ccc(OCCCC(=O)OC(C)C(=O)Nc2cccc(C(C)=O)c2)cc1 (stereo not given)	4	3	5	4	4	i	-6	12

Later entries
no.	SMILES	MT1-MMP act inh	MT1-MMP act inh RFP	CSC inhib	PABP polyA inh	eIF4H FP inh	Rce1 inhib	HIV Env fusion	Yeast UUG start
61	Cc1nn(CC(=O)NNC(=S)Nc2ccccc2)c(C)c1[N+](=O)[O-]	-2	-2	1	-1	1	i	nt	-21
62	O=C(COC(=O)/C=C/c1cccc(F)c1)NC(=O)NC1CCCC1	1	2	1	nt	nt	nt	-4	-7
63	COc1ccc(CN(CCC#N)C(=S)NC(=O)c2ccccc2)cc1	5	3	-5	-8	-4	i	nt	-19
64	O=C(NCCC1=CCCCC1)C1CCN(C(=O)c2ccc(Cl)cc2)CC1	-1	-3	-6	-2	-4	i	nt	4
65	COC(CNS(=O)(=O)c1cc2c3c(c1)CCN3C(=O)CC2)OC	4	5	2	9	-8	i	-5	-12
66	COc1ccc(C2(C)NC(=O)N(CC(=O)NC3(C#N)CCCCC3)C2=O)cc1 (stereo not given)	1	2	nt	-5	-2	i	-13	-14
67	C#CCNc1nc(C(C)C)nc2c1nnn2Cc1ccccc1F	-10	-14	-5	3	-3	i	20	-11
68	Cc1ccc(Cl)cc1NC(=S)N/N=C/c1cccc2ccccc12	5	-11	?	9	8	i	-30	-8
69	CC1(Cc2ccc(Cl)c(Cl)c2)C(=O)Nc2c(Cl)ccc(Cl)c21 (stereo not given)	-13	-11	nt	nt	nt	nt	-8	-3
70	COC(=O)c1ccc2c(=O)n(CC3CCCO3)c(SCC(=O)Nc3ccccc3OC)nc2c1 (stereo not given)	-2	-4	2	4	-2	i	-17	-13
71	CC(CC(=O)Nc1ccc(C(N)=O)cc1)c1ccccc1 (stereo not given)	1	7	-1	21	-8	i	-6	-19
72	Nc1ccc2nc3n(c(=O)c2c1)CCC3	-3	2	8	1	-3	i	5	-14
73	CS(=O)(=O)N(CCc1ccccc1)CC(=O)Nc1ccc(OCc2ccccc2)cc1	1	-12	13	11	6	i	nt	-18

Source: PubChem BioAssay (several laboratories)
